Screens deposited in PubChem by several laboratories.
Arbovirus inh: antivirals against arbovirus infection, primary screen, cell-based, full library, 10K replicate subset; arbovirus infection cell-based antiviral screen; AID 1251, 2008; 200,000 tested, 0.37% active; inhibition, % at 10 µM;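 active means inhibition from about 30%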;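 further: bluetongue infection of BSR cells; cell survival read as ATP light after 72 h; 0% = infected wells without compound and 100% = uninfected wells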
RecA intein inh: Mtb RecA intein splicing inhibitors, primary screen, biochemical, fluorescence, HTS | Protein RecA (Mycobacterium tuberculosis (strain ATCC 25618 / H37Rv)), P9WHJ3 | cell-free RecA intein splicing | inhibition, %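 (about 9 µM by stock and volumes)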 | 290,000 tested, 0.75% active; in the data active means inhibition above about 30%; inconclusive means no clear call, values can overlap the other calls;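 further: 0% = vehicle wells and 100% = reference inhibitor control wells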
Target sequence (P9WHJ3 whole entry, looked up): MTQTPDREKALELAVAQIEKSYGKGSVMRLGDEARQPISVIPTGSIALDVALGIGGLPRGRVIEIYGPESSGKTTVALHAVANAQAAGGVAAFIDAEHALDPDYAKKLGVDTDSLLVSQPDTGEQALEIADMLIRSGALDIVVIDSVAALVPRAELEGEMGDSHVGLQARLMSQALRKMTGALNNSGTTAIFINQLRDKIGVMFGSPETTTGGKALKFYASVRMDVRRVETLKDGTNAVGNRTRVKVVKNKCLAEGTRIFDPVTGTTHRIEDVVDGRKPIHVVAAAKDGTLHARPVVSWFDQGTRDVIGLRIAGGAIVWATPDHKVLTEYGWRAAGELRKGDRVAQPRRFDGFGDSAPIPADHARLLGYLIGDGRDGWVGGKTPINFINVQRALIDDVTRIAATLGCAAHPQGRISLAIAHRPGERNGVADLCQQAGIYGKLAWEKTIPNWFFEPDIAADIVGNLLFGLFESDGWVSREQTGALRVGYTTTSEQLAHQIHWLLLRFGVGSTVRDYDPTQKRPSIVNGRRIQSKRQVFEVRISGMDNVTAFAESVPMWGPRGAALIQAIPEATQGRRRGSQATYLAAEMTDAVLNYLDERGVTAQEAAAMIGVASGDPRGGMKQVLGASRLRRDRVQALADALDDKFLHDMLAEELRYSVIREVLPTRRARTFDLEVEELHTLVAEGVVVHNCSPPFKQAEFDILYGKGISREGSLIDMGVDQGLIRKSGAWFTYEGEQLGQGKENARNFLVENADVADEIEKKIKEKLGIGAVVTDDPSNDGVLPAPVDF
YopH inh: YopH tyrosine phosphatase inhibitors, primary screen, biochemical, fluorescence Ex485/Em525; inhibition, %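 (about 10 µM by stock and volumes)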; 140,000 tested, 0.16% active;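 active means inhibition of 50% or more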;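 further: controls were vehicle for no effect and minimum signal wells for full effect; inactives centre near -20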
Mtb betalactam: beta-lactam sensitization of Mtb H37Rv, H37Rv. M. tuberculosis H37Rv growth with meropenem, percent inhibition; hits of this screen are not shown here. inhibition, % at 25 µM. 330,000 tested, 0.27% active;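 active means about 74% or more and at least 40 points above the plate without the antibiotic, then above 30% in a dose series; inconclusive means first-round hits that could not be retested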;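 further: growth measured after seven days incubation then overnight dye step; 0% = bacteria only wells and 100% = bacteria with antibiotic; twin plates without the antibiotic show which effects depend on it; some results filed as inactive read as strong as hits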
Mtb H37Rv: M. tuberculosis H37Rv growth inhibitors, H37Rv strain (AID 1626). M. tuberculosis H37Rv growth inhibition; higher % means a stronger effect. inhibition, % at 10 µM; hits with a dose series show IC50 in µM. 220,000 tested, 0.95% active;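 active means confirmed in a dose series; inconclusive means inhibition above 80% but not taken into the dose series; inactive means below 80% or under 30% at every dose of the series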;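 further: bacteria incubated seven days before Alamar blue readout; 0% = bacteria only wells and 100% = bacteria with antibiotic wells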
Arbovirus inh repeat: recorded beside Arbovirus inh, whose call it bears; inhibition, %; measured here: 10K subset replicate screen; many hits read low in the repeat;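 first of two repeat runs on a subset; 0% = infected and 100% = uninfected wells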
* hit, by the source's call; ? = inconclusive; . = not tested or not shown. An excerpt; the hit share may differ from the screen's.

SMILES	Arbovirus inh	RecA intein inh	YopH inh	Mtb betalactam	Mtb H37Rv	others
CCOc1ccc(N/C(=C(/C(Cl)=C(Cl)Cl)[N+](=O)[O-])n2cncn2)cc1	-6	-44	-30	24	-3%
COc1nc(-c2ccccc2)nc(-c2ccccc2)c1C	.	11	.	60	.
CC(C)NC(=O)CSCc1c(F)cccc1Cl	-5	-3.4	6	-18	-6%
O=S(=O)(c1cc(Cl)ccc1Cl)n1nnc2ccccc21	4	-1.6	-40	-3	-3%
COC(=O)c1ccc(S(=O)(=O)N2CCCC2)o1	7	-0.2	-14	2	-22%
CCN=C1SC(CC(=O)NCc2ccccc2)C(=O)N1CC (stereo unspecified)	3	-1.8	.	-3	1%
N/C(CS(=O)(=O)c1ccccc1)=N\OC(=O)c1ccc(F)cc1	.	0.7	.	-6	.
CCOC(=O)C1(CC2CC2)CCN(C(=O)c2ocnc2C)CC1	4	-1.5	.	17	2%
O=C(NCc1cn2ccsc2n1)Nc1ccc(Cl)cc1	4	1.7	-15	-3	-2%
O=C(OCc1nnc(-c2ccccc2)o1)c1ccc2c(c1)OCCO2	-6	2.1	-11	5	-4%
COc1ccc(C(=O)CC(=O)C(=O)Nc2cc(OC)c(OC)c(OC)c2)cc1	.	1.4	.	6	.
CC1(C)Cc2c(sc3[nH]c(=S)[nH]c(=O)c23)CO1	3	-2.1	.	-3	3%
COc1cccc(/C=C2\SC(=S)N(CCC(=O)N3CCCCC3)C2=O)c1	.	7.6	.	95	.
COc1ccc(CNC(=O)C2CCN(S(C)(=O)=O)CC2)c(OC)c1	1	-1.1	.	-2	-1%
CCN(CC)S(=O)(=O)c1ccc(C)c(NC(=O)CN2C(=O)NC3(CCCC3)C2=O)c1	.	-1.6	.	-3	.
Cc1ccc(CN(C)C(=O)CCc2nc3sc4c(c3c(=O)[nH]2)CCCC4)o1	.	-1.3	.	-3	.
Cc1cc(NC(=O)CSc2nccn2-c2cccc(C)c2C)no1	0	2.2	.	-10	-10%
COc1cccc(C(=O)N2CCN(Cc3cc(Br)ccc3OC)CC2)c1	1	.	-11	-7	8%
Cn1c(SCC(=O)Nc2nccs2)nnc1-c1ccc(S(=O)(=O)N2CCCC2)cc1	4	-3.2	-10	-13	-5%
O=c1cc(C(F)(F)F)c2cc3c4c(c2o1)CCCN4CCC3	4	-75	-3	3	4%
Cc1nc(SCC(=O)Nc2ccc3c(c2)OCO3)c(C#N)c2c1CCCC2	-16	-0.2	-39	-4	10%
Cc1c(Cl)cccc1NC(=S)/C(=C(\[O-])c1ccc(Cl)s1)[n+]1ccccc1	5	37*	-18	-3	2%
COc1c(Cl)cc(C(=O)O)cc1Cl	.	-1.8	.	5	-4%
O=C(CSc1nnc(-c2ccccc2)c(-c2ccccc2)n1)Nc1ccc(Br)cn1	-8	-1.3	3	1	9%
CCCc1nn(C)c(C(=O)Nc2cccc3ccccc23)c1Cl	7	6.8	-12	99	77%

Next part, overlapping the part above by six compounds.
SMILES	Arbovirus inh	RecA intein inh	YopH inh	Mtb betalactam	Mtb H37Rv	others
O=c1cc(C(F)(F)F)c2cc3c4c(c2o1)CCCN4CCC3	4	-75	-3	3	4%
Cc1nc(SCC(=O)Nc2ccc3c(c2)OCO3)c(C#N)c2c1CCCC2	-16	-0.2	-39	-4	10%
Cc1c(Cl)cccc1NC(=S)/C(=C(\[O-])c1ccc(Cl)s1)[n+]1ccccc1	5	37*	-18	-3	2%
COc1c(Cl)cc(C(=O)O)cc1Cl	.	-1.8	.	5	-4%
O=C(CSc1nnc(-c2ccccc2)c(-c2ccccc2)n1)Nc1ccc(Br)cn1	-8	-1.3	3	1	9%
CCCc1nn(C)c(C(=O)Nc2cccc3ccccc23)c1Cl	7	6.8	-12	99	77%
O=C(COc1ncnc2c(Cl)cc(Cl)cc12)NCCC1=CCCCC1	0	-0.9	-13	-15	2%
CSc1nnc([C@@H](NC(=O)OC(C)(C)C)C(C)C)o1	0	1.5	-39	-2	-4%
OCCN(CC#CCC(O)(c1ccccc1)C1CCCC1)CCO (stereo unspecified)	.	0.8	.	1	.
Cn1c(CNC(=O)c2ccccc2F)nnc1SCC(=O)c1ccccc1	.	-1.1	.	-3	.
O=C(Cn1ccc([N+](=O)[O-])n1)Nc1nccs1	0	0.5	-19	-7	4%
O=C(CSc1nc(O)cc(=O)[nH]1)N1CCOCC1	.	-2.0	.	6	.
COc1ccc(CCNC(=S)N2CCC(C(N)=O)CC2)cc1	.	-0.6	.	2	-12%
CCS(=O)c1ccccc1C(=O)OC(C)C(=O)Nc1ccc(S(=O)(=O)N2CCCC2)cc1 (stereo unspecified)	.	1.5	.	-16	.
CCOC(=O)N1CCN(C(=O)CN(c2ccc(OC)cc2)S(C)(=O)=O)CC1	12	1.4	2	0	-9%
CC(=O)N1CCc2c(sc(NC(=O)CCS(=O)(=O)c3ccc(C)cc3)c2C#N)C1	.	0.6	.	-10	.
CC(=O)NCC12CC3CC(C1)CC(C(=O)O)(C3)C2	-7	1.3	-37	-7	-1%
Cc1cc2c(nc1C)CCCN2C[C@@H](C)O/N=C1/[C@H]2CCn3c(=O)n(-c4ccccc4)c(=O)n3[C@H]2[C@H](O)[C@@H]2O[C@H]12	-3	.	-32	-6	16%
Cc1ccc(Cl)cc1NC(=O)C1CCCN1S(=O)(=O)c1ccc(-c2ccc(=O)[nH]n2)s1 (stereo unspecified)	.	-1.7	.	-1	.
CC1N(O)C2CCCCCC2N1O (stereo unspecified)	9	-6.5	-47	8	-2%
Cn1c(=O)c2c(nc(NCc3ccco3)n2C/C=C/c2ccccc2)n(C)c1=O	9	-2.4	.	0	3%
CCOC(=O)C1C(=O)CC(C)(O)C(C(=O)OCC)C1c1ccc(F)cc1 (stereo unspecified)	4	-1.6	-13	-3	4%
OCCN(CC#CC(O)(c1ccccc1)c1cccc(F)c1)CCO (stereo unspecified)	.	-29	.	-1	-1%
COc1ccc(N2C(=O)NC(=O)/C(=C/c3cccc(OC(=O)c4cccs4)c3)C2=O)cc1Cl	10	9.7	-26	?	5.4µM*
C=CCNC(=O)C1CC1(c1ccccc1)c1ccccc1 (stereo unspecified)	4	-1.6	-28	0	-4%
CCC(C)Sc1cccc(-c2nc3cc(C)ccn3c2NCc2ccccc2)c1 (stereo unspecified)	.	12	.	14	.
CN(C)/C(=N\S(=O)(=O)c1ccccc1)c1ccc(F)cc1	.	-3.1	.	5	.
CCOc1cc(/C=C2/NC(=O)N(CC(=O)Nc3cccc(C)c3)C2=O)ccc1O	-13	-5.3	-33	2	-7%
CCCCn1c(N)c(N(CC(C)C)C(=O)C2CCN(c3ncnc4sc(C)c(C)c34)CC2)c(=O)[nH]c1=O	.	1.2	.	-1	.
Cc1ccc(CCNC(=O)C2CCCN(S(=O)(=O)c3cccs3)C2)cc1 (stereo unspecified)	2	1.2	-27	0	1%
O=C(NCc1ccco1)c1cc2sccc2n1Cc1ccccc1	12	15	-1	17	3%

The list goes on; it opens with the three that closed the last part.
SMILES	Arbovirus inh	RecA intein inh	YopH inh	Mtb betalactam	Mtb H37Rv	others
CCCCn1c(N)c(N(CC(C)C)C(=O)C2CCN(c3ncnc4sc(C)c(C)c34)CC2)c(=O)[nH]c1=O	.	1.2	.	-1	.
Cc1ccc(CCNC(=O)C2CCCN(S(=O)(=O)c3cccs3)C2)cc1 (stereo unspecified)	2	1.2	-27	0	1%
O=C(NCc1ccco1)c1cc2sccc2n1Cc1ccccc1	12	15	-1	17	3%
CCOC(=O)c1nnc(-c2ccccc2)nc1N1CCSCC1	-1	-0.4	.	-3	4%
O=C(Nc1ccc(F)cc1)c1ccc(-n2cncn2)c([N+](=O)[O-])c1	-3	-4.2	.	1	7%
CC(C)CCNC(=O)Cc1csc(-c2ccccc2)n1	1	-3.1	.	-3	-7%
O=C(O)CN=C1CC(c2ccccc2)CC(=O)/C1=C(/O)CCCN1C(=O)c2ccccc2C1=O (stereo unspecified)	1	0.3	.	-1	-8%
CC(C)n1c(SCC(=O)Nc2ccc(N3CCOCC3)cc2)nnc1-c1ccco1	.	0.0	.	7	.
CCOc1ccc(-c2cc(CCCC(=O)NCc3cccnc3)no2)cc1	-3	-7.2	-19	-2	8%	Arbovirus inh repeat=-3
Cc1ccc(S(=O)(=O)Oc2ccc3c(c2)O/C(=C\c2cccnc2)C3=O)cc1	2	5.2	-25	69	-1%
Cc1ccc(C#N)c(SCc2ccccc2F)n1	.	0.4	.	0	-3%
O=C(N/N=C\c1ccc(COc2ccc([N+](=O)[O-])cc2)o1)c1cccc(Cl)c1	0	-2.3	-21	92	5%
COc1ccc(/C=N/NC(=O)c2cccc([N+](=O)[O-])c2)cc1OS(=O)(=O)c1ccc(C)cc1	-14	.	-33	-4	-3%
COc1cccc(Nc2cc(C)nc3nc(C)nn23)c1	0	2.5	-3	-2	3%	Arbovirus inh repeat=4
Clc1ccc(C2=Nn3c(nnc3-c3cc(-c4ccccc4)n[nH]3)SC2)cc1	-3	1.2	-9	-1	10%
CCCCSc1nc2c(cnn2-c2ccccc2)c(=O)n1N	13	3.2	.	24	3%
Cc1ccc2c(c1)c1c(n2CC(O)CN2CCCCC2C)CCCC1 (stereo unspecified)	.	-1.1	.	-4	13%
CCNC(=S)NC1CC2CCCC(C1)N2Cc1ccc(C)cc1 (stereo unspecified)	.	-2.0	.	-13	.
O=C(Nc1cccnc1Cl)C1CCCN(c2ncnc3c2nc2n3CCCCC2)C1 (stereo unspecified)	.	-0.2	.	7	.
NS(=O)(=O)c1ccc(CNC(=O)CCS(=O)(=O)Cc2ccccc2)cc1	.	-0.1	.	4	.
Cc1c(C(=O)NN2CCOCC2)oc2c1ccc1ccccc12	6	.	.	1	6%
CC(=O)Nc1cccc(NC(=O)CSc2nnc(NC(=O)c3ccco3)s2)c1	.	1.7	.	-11	.
O=C(CNc1ccccc1)N/N=C/c1cn(-c2ccccc2)nc1-c1ccccc1	5	0.3	-34	9	7%
O=S(=O)(CS(=O)(=O)c1ccc(Cl)cc1)c1ccc(Cl)cc1	.	0.5	.	4	6%
O=C(NNc1cc(N2CCCC2)nc(N2CCCC2)n1)c1ccc([N+](=O)[O-])cc1	9	2.4	.	91	69%
CCCc1cc(-c2n[nH]c(=S)n2CC)c2ccccc2n1	8	1.9	-22	-2	-1%
CN(C)S(=O)(=O)Oc1ccsc1C(=O)Nc1cccc(Cl)c1Cl	4	.	-38	3	0%
COc1ccccc1NC(=O)/C(C#N)=C/c1cccn1C	.	0.0	.	-11	.

Later entries.
SMILES	Arbovirus inh	RecA intein inh	YopH inh	Mtb betalactam	Mtb H37Rv	others
CCOc1cccc2cc(C(=O)Nc3cc(C)on3)c(=O)oc12	-7	1.3	-26	?	2%
COc1nc(OCCNC(C)=O)nc(N(C)C)n1	2	-0.4	4	-11	-5%
Cc1ccc(-c2nc(C=Nc3ccc(O)cc3)c(O)o2)cc1	-16	-0.6	.	.	-1%
O=C(NCCCN1CCN(CCCNC(=O)c2ccc(F)cc2)CC1)c1ccc(F)cc1	0	0.0	-28	0	-9%
O=C(O)c1ccc(N=Nc2c(-c3ccccc3)[nH]oc2=O)cc1	.	0.5	.	-4	.
COc1ccc(-c2nnc3ccc(SCC(=O)NCc4ccco4)nn23)cc1OC	2	-2.3	-5	-8	-4%
CCN(CC(=O)NCCC1=CCCCC1)S(=O)(=O)c1ccccc1	.	-1.5	.	-6	-1%
COc1cc(CNCCc2ccccc2)ccc1OCc1ccc(Cl)nc1	-19	3.1	9	-10	.
Cc1ccc(NC(=O)c2ccc(S(=O)(=O)NCC3CCCO3)cc2)cc1 (stereo unspecified)	1	-0.3	-51	19	-5%
COc1ccc(Nc2cc(C(=O)NCc3ccco3)c3ccccc3n2)cc1	2	-37	-20	2	-6%
O=C(NCc1ccccc1)c1ccc(OCC2CCCO2)cc1 (stereo unspecified)	2	-8.8	-34	7	0%
C/C(=N\NC(=O)C1CC1)c1ccc(OC(F)F)cc1OC(F)F	.	1.9	.	11	.
C=CCNC(=O)COC(=O)c1ccc(C)c(NC(=O)c2ccco2)c1	15	-0.4	.	-6	-1%
COc1ccc(C(=O)N/N=C(\C)c2ccccn2)cc1OC	.	1.5	.	99	.
Cc1ccc(CN2CCN(Cc3nc4c(s3)CCCC4)CC2CCO)cc1 (stereo unspecified)	3	-2.2	.	-9	-3%
COC(=O)Cc1ccc(NC(=O)c2ccc3c(c2)C(=O)N(CC2CCCO2)C3=O)cc1 (stereo unspecified)	.	0.5	.	-7	.
COc1ccc(S(=O)(=O)N(CC(=O)N2CCN(C)CC2)C2CCCCC2)cc1OC	1	.	-56	-4	2%
